HSD17B inhib: blocks hydroxysteroid 17-beta dehydrogenase activity | Q99714 | recombinant HSD17B10, NADH fluorescence kinetic; many of its hits are not listed in these tables | Potency, µM (top dose mostly 57.1 µM), inactives show at the highest dose activity change, negative = inhibition, usual class: inhibitors | 7.6% of 75,000 active; active means well fitted inhibition curve with a large enough effect; inconclusive means small, poorly fitted or top-dose-only effect; inactive means no such curve, though single readings can be large or run the other way;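 further: the protocol describes HADH2 (HSD17B10) and not the HSD17B4 of the title; nearly all actives have a fitted effect of over 70% in size; most hits overshoot -100% by far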
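His-tagged E. coli-expressed HADH2 at 20 nM in 100 mM Tris-HCl pH 9.0 with 0.01 % Tween-20, preincubated 15 min with compound at room temperature. Reaction with 1 mM NAD+ and 90 uM beta-hydroxybutyryl coenzyme A; NADH fluorescence (360/450 nm) read kinetically over 4 min, last minus first point.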
* hit, by the source's call; ? = inconclusive; [ ] = another dose, or the depositor's remark. On the % scale 0 is the no-effect control and ±100 the full control effect; potency means the concentration at half of the fitted maximal effect. This is a subset, so the mix of outcomes need not match the whole.

SMILES | HSD17B inhib
Cc1cc(C(=O)Nc2c(C)n(C)n(-c3ccccc3)c2=O)c(C)o1 | 9.5%
COCCn1c(C)cc(C(=O)CSc2nncn2-c2ccccc2)c1C | -7.2%
CN(c1ccc(C(=O)NCc2cccnc2)cc1)S(C)(=O)=O | 0.4%
CCN(CC)S(=O)(=O)c1ccc(NC(=O)Cn2cnc3ccccc3c2=O)cc1 | 9.0%
CCOC(=O)N/N=C1/C[C@@H](O)[C@@H](O)[C@@H]2[C@@H]3C(=O)N(C4CCCCC4)C(=O)[C@H]3CC[C@H]12 | -8.4%[11.4 µM]
O=C(CSc1nc2ccccc2s1)c1sc2sc3ccccc3[n+]2c1O | 3.98µM*
C(=NCCCN1CCOCC1)c1ccc2c(c1)OCO2 | -1.0%
COc1ccc(C(=O)Oc2ccc3c(c2)OCO3)cc1OC | 1.4%
Cc1cccc(-c2cc(=O)c3cc(Br)ccc3o2)c1 | 9.4%
COc1cccc(-c2nn(-c3ccccc3)cc2C(=O)O)c1 | -1.0%
OCc1ccccc1O | 0.0%
CC(C)N(C#N)c1nc(N2CCOCC2)nc(N2CCOCC2)n1 | 8.8%
CCOC(=O)C1CCCN(C(=O)c2ccccc2Oc2ccccc2)C1 (stereo not drawn) | -1.1%
O=C(O)c1cc(NS(=O)(=O)c2ccc3ccccc3c2)ccc1O | -4.8%
CN1CCN(C2=C(Cl)C(=O)N(C3CCCCC3)C2=O)CC1 | -3.4%

Some of these compounds in order of SMILES length, rising:
SMILES | HSD17B inhib
COc1cccc(-c2nn(-c3ccccc3)cc2C(=O)O)c1 | -1.0%
CC(C)N(C#N)c1nc(N2CCOCC2)nc(N2CCOCC2)n1 | 8.8%
CCN(CC)S(=O)(=O)c1ccc(NC(=O)Cn2cnc3ccccc3c2=O)cc1 | 9.0%

(next part)
SMILES | HSD17B inhib
CC(C)(C)n1nc2c(c1NC(=O)c1ccc(S(=O)(=O)N3CCCC3)cc1)CSC2 | -10.1%
O=C(O)CSc1nnc(C2CC2)n1-c1ccccc1 | 0.398µM*
COc1ccc(S(=O)(=O)N2CCCC(C(=O)N3CCOCC3)C2)cc1C (stereo not drawn) | 9.9%
CCCOc1c(Br)cc(C(=O)NCC)cc1OC | 3.8%
CCCCN(CC)CCNC(=O)c1cc2c(=O)n(C)c3ccccc3c2n1C | 31.6µM*
COc1ccc(CNC(=O)CN(CC2CCCO2)C(=O)CNS(=O)(=O)c2ccc(C)cc2)cc1 (stereo not drawn) | 17.7%
CCCS(=O)(=O)N1CCN(Cc2ccccc2OCC)CC1 | -14.5%
CCCC1(CCC)NC(=O)N(CC(=O)Nc2ccccc2OC)C1=O | 4.5%
c1ccc2c(c1)nc(N1CCOCC1)c1nnnn12 | -11.8%
Cn1c(=O)cc(SCC(=O)N2CCOCC2)c2ccc(Cl)cc21 | -22.4%
CCCCn1c(C(C)NC(=O)c2cccs2)nc2ccccc21 (stereo not drawn) | 4.6%
CO[C@@H]1COC(=O)[C@H](COCc2ccccc2)NC(=O)C/C=C\[C@@H](C)[C@H](OC)COC(=O)[C@H](COCc2ccccc2)NC(=O)C/C=C\[C@H]1C | 1.3%[11.4 µM]
COC(=O)C1CCN(c2cc(=O)n(Cc3ccc(F)cc3)c(=O)[nH]2)CC1 | -21.1%
O=C(CCCN1C(=O)c2ccccc2C1=O)N1CCN(c2ccccn2)CC1 | 177.2%[activator]
Cc1ccc(CSc2nc3c(c(=O)[nH]2)CCC3)cc1 | -0.8%
N#CCCn1c(=O)c(CCc2ccccc2)nc2cnc(Oc3cccc(Cl)c3)nc21 | -0.6%
O=C(CCC1CC(=O)Nc2ccccc21)NCc1cccnc1 (stereo not drawn) | 6.0%
Cc1cc(C)c(NC(=O)CS(=O)CC(=O)Nc2cccnc2)c(C)c1 (stereo not drawn) | 1.7%
CCC1Cc2c(nc3c4c(nc(N5CCOCC5)c(C#N)c24)NC(C)=N3)O1 (stereo not drawn) | 3.16µM*
CS(=O)(=O)N(CC(=O)N1CCN(c2ccccc2)CC1)C1CCCCC1 | -2.1%
CCn1c(=O)c2c3c(sc2n2c(SCc4ccc(F)cc4)nnc12)CCCC3 | -3.9%
CC(=Nc1ccc(C)c(C)c1)C1=C(O)CSC1=O | 3.5%
COC(=O)[C@H](C(C)C)n1c(C)c(C(C)=O)c(C(C)=O)c1C | 0.2%
N#Cc1cnc(SCCc2ccccc2)nc1N | -1.6%
CN(C)c1cc(NC(=O)CN2CCOCC2)c2ccccc2n1 | 31.6µM*
C=C(C)Cn1c(NCCOC)nc2c1c(=O)[nH]c(=O)n2C | 1.2%
COc1cccc(NC(=O)c2nnn(CCc3ccccc3)c2N)c1 | 3.4%
c1ccn2c(CNc3ncnc4sccc34)nnc2c1 | 8.5%
CCOC(=O)N1CCC(NC(=O)C2CCN(c3nc(-c4ccc(OC)cc4)no3)CC2)CC1 | -9.4%
N=C1C(c2nc3ccccc3s2)=C(O)CN1Cc1ccco1 | -13.9%
O=C(CCCN1C(=O)CCC1=O)Nc1ccc2c(c1)OCCO2 | 1.4%
O=C(c1cnc2sccn2c1=O)N(Cc1ccccc1)c1ccccn1 | 8.1%
Cc1ccc2cc(C#N)c(SCC(=O)NCC3CCCO3)nc2c1C (stereo not drawn) | 12.0%
CC(=O)Oc1c(S(=O)(=O)c2ccc(C)cc2)c(C)nn1-c1ccccc1 | -5.2%
O=C(Nc1ccc2c(c1)OCCO2)C1CCN(C(=O)c2ccc(Br)cc2)CC1 | 1.6%
c1cc2c(cc1C(N1CCNCC1)N1CCNCC1)OCO2 | 4.4%[11.4 µM]
Cc1ccc(C2=N/C(=C/N3CCOCC3)C(=O)O2)cc1 | -7.3%
COc1cc(C(=O)OCC(=O)c2cc(C)n(C)c2C)cc(NC(=O)c2ccco2)c1OC | ?
CC1CCN(Cc2ccc(NC(=O)C3CCN(c4nnc(-n5cccc5)s4)CC3)cc2)CC1 | 0.0%
CC(C)CCN1CC(C(=O)NCc2ccccc2)CC1=O (stereo not drawn) | 8.8%
C[N+]1(CCN=C=NC2CCCCC2)CCOCC1 | -0.3%[11.4 µM]
COc1ccc2[nH]cc(CCNc3ncnc4ccc(-c5cccc(C#N)c5)cc34)c2c1 | -4.2%
O=C(NC1CCCCC1)C1CCCN(S(=O)(=O)c2cnc[nH]2)C1 (stereo not drawn) | 8.8%
CC12CN3CC(C)(CN(C1)C3c1ccc(Br)cc1)C2=O (stereo not drawn) | 35.3%[activator]
O=C(NCC1CCCO1)C1CC(c2ccc(Cl)c(Cl)c2)=NO1 (stereo not drawn) | 14.4%
CCc1nn(CC(=O)NCCCN2CCc3ccccc3C2)c(=O)c2cc3sccc3n12 | -9.6%
O=C(NCCc1ccccc1)c1ccncc1 | 0.7%
CC(C)(C)N1C(=O)[C@H]2[C@H]3[C@H](O)[C@H](O)C/C(=N/NC(=O)OCc4ccccc4)[C@@H]3CC[C@@H]2C1=O | -3.6%[11.4 µM]
COCC(=O)Oc1c(S(=O)(=O)c2ccc(C)cc2)c(C)nn1-c1ccccc1 | 3.6%
COc1ccc(C2C3=C(CC(C)(C)CC3=O)Oc3ncn(Cc4ccco4)c(=N)c32)cc1 (stereo not drawn) | -0.2%
COc1ccc(-c2ccc(-c3noc(-c4ccco4)n3)c(OC)n2)cc1 | 25.1µM*
CC(=O)Nc1ccc(S(=O)(=O)N=S(C)C)cc1 | 10.5%[11.4 µM]
O=C(COc1ccc(S(=O)(=O)N2CCCC2)cc1)NCCC1=CCCCC1 | -12.2%
C[C@@H]1CCCC(CC(=O)O)(CC(=O)O)C1 | 5.0%[11.4 µM]
CCc1ccccc1NS(=O)(=O)c1ccc(SC)cc1 | -6.8%
CCCc1[nH]nc2c1C1(C(=O)N(CC)c3ccccc31)C(C#N)=C(N)O2 (stereo not drawn) | -2.5%
NC(=O)c1ccc(-n2nnnc2SCC(=O)Nc2ccc(N3CCOCC3)c(Cl)c2)cc1 | 7.7%
[O-][n+]1c2c(nn1-c1ccccc1Cl)-c1nonc1CC2 | 14.6%
O=Cc1ccc(CO)o1 | -4.7%
COc1cccc(C2CC(c3ccc(C)cc3)n3ncnc3N2)c1 (stereo not drawn) | -2.5%

The list goes on.
SMILES | HSD17B inhib
O=C(CCCC(=O)N(CC(=O)NC1CCCC1)Cc1ccc2c(c1)OCO2)Nc1ccccn1 | -2.5%
O=S(=O)(c1cccc2c(I)cccc12)N1CCCNCC1 | -1.8%
O=C(Nc1ccccc1)OCC1CCCN2CCCCC12 (stereo not drawn) | 12.3%
COC(=O)Nc1ccc(S(=O)(=O)N2CCCc3ccccc32)cc1 | -9.1%
Cc1nn(C)c(C)c1CNC(=O)c1cc2n(n1)C(C(F)(F)F)CC(c1cccs1)N2 (stereo not drawn) | 0.3%
Cn1c(-c2ccc3c(c2)OCO3)cnc1N | 3.3%
Cn1c(C(=O)NCCCN2CCCC2=O)cc2c(=O)n(C)c3ccccc3c21 | ?
O=C(CC1=NCCNC(c2ccccc2)C1)c1ccccc1O (stereo not drawn) | 5.2%
CCOC(=O)C1(c2csc(N)n2)COC(=O)C1 (stereo not drawn) | -2.7%
CC(C)OCCCNC(=O)c1ccc(N(C)S(C)(=O)=O)cc1 | -7.8%
Cc1nc2ccc(C(=O)O)cc2c2c1CC(C)S2 (stereo not drawn) | 25.1µM*
CCS(=O)(=O)N1CCC[C@H]2CN3CCc4cc(OC)ccc4[C@@H]3C[C@@H]21 | 10.6%
COC(=O)CCN(c1ccccc1)S(=O)(=O)c1ccc(OC)cc1 | 10.0%
O=C(CCC1CCCCC1=O)c1ccccc1 (stereo not drawn) | 5.2%
COc1ccc2sc(NC(=O)CC(C)C)nc2c1 | -15.3%
CS(=O)(=O)N(CC(=O)NCc1ccc2c(c1)OCO2)Cc1ccc(Cl)cc1 | -19.0%
CCSc1nnc(C)n1-c1ccc(C(=O)O)cc1 | 1.0%
C[C@@H](C(=O)O)[C@H]1C[C@]1(C)[C@H](NC(=O)OCc1ccccc1)c1ccccc1 | -11.1%
O=C(O)Cn1c(O)c(C=Nc2ccccc2)sc1=S | -1.7%
CCC1CCCCN1CCNC(=O)c1[nH]c(C)c(C(C)=O)c1C (stereo not drawn) | 6.2%
O=C(CN1C(=O)C2C3C=CC(C3)C2C1=O)N1CCc2ccccc2C1 (stereo not drawn) | 12.2%
Cc1ccc2c(c1C)NC(C(=O)O)C1CC=CC21 (stereo not drawn) | 10µM*
Cc1cccc([C@@H]2CN(C)CCc3c2cc(O)c(O)c3Cl)c1 | ?
Oc1ccc(-c2csc(Nc3cccnc3)n2)cc1 | 3.1%
Cn1c(=O)[nH]c(=O)c2c1nc(CN1CCN(c3ccccc3F)CC1)n2CCCc1ccccc1 | -5.3%
CC(C)C[C@@H]1NC(=O)N(CCN2CCOCC2)C1=O | 14.3%
O=C(Cc1ccc(S(=O)(=O)N2CCOCC2)s1)NCC1CCCCC1 | -4.5%
Cc1occc1C(=O)Nc1nnc(-c2ccncc2)s1 | 31.6µM*
Cc1cc(C)cc(N2C(=O)CSC2c2cccs2)c1 (stereo not drawn) | -0.8%
Cc1ccc(-c2cc(C(=O)Nc3cnn(C45CC6CC(CC(C6)C4)C5)c3)no2)cc1 | -11.9%
O=C(O)CCCNS(=O)(=O)c1ccc2ccccc2c1 | 4.1%
N#CC1=C(N)Oc2n[nH]c(-c3ccccc3)c2C12C(=O)Nc1ccccc12 (stereo not drawn) | 0.3%
Cc1nn2c3c(cnc2c1-c1ccc(Cl)cc1)C(=O)CC(c1ccco1)C3 (stereo not drawn) | -6.8%
Cc1nn(Cc2ccc(Cl)c(Cl)c2)c(C)c1NC(=O)c1noc2c1CCCCC2 | 1.8%
CCOC(=O)Cn1c(=O)c2c(nc(Br)n2Cc2ccc(Cl)cc2)n(C)c1=O | -2.0%
Cc1cccc(Nc2nc(N)nc(CN3CCN(c4ccc(F)cc4)CC3)n2)c1 | -8.6%
COc1cc2nc(NC(=O)c3ccccc3)[nH]c(=O)c2cc1OC | -0.3%
COc1cc(C2C3=C(CC(c4ccco4)CC3=O)Nc3ccccc3N2C(C)=O)cc(OC)c1OC (stereo not drawn) | -26.8%
c1ccc(CCCc2nc(-c3ccccn3)no2)cc1 | 9.4%
CCOC(=O)C1=C(c2ccccc2)N2CCN=C2S1 | 4.7%
Cc1ccc(S(=O)(=O)Cc2ccc(C(=O)N3CCN(c4cc(C)ccc4C)CC3)o2)cc1 | -3.4%
O=C(CCC(=O)Nc1ccc(Oc2ccccc2)cc1)NCCO | 5.3%
Cc1cc(-c2ccccc2)nc2cc(C(=O)NCCCn3ccnc3)nn12 | 25.1µM*
N[C@H](Cc1ccc(Cl)cc1)C(=O)O | 21.4%
CCOC(=O)C1CCN(c2cc(C)nc3cc(-c4cccc(F)c4)nn23)CC1 | 25.1µM*
CC(C)(C)c1csc(NC2=NS(=O)(=O)c3ccccc32)n1 | -14.2%
Clc1ss/c(=N\c2ccccn2)c1Cl | -17.4%
O=S(=O)(Nc1nc2ccccc2nc1NCc1ccco1)c1cccs1 | -11.7%
O=C(Nc1ccccc1)N(C1=NCCC1)c1ccc(OC(F)F)cc1 | -17.4%
CC(=O)c1cccc(NC(=O)c2cc(-c3ccc(F)cc3)on2)c1 | 3.5%
Brc1cccc(/C=N\n2cnnc2)c1 | 6.9%

Structures shown so far with bromine (6):
SMILES | HSD17B inhib
Cc1cccc(-c2cc(=O)c3cc(Br)ccc3o2)c1 | 9.4%
CCCOc1c(Br)cc(C(=O)NCC)cc1OC | 3.8%
O=C(Nc1ccc2c(c1)OCCO2)C1CCN(C(=O)c2ccc(Br)cc2)CC1 | 1.6%
CC12CN3CC(C)(CN(C1)C3c1ccc(Br)cc1)C2=O (stereo not drawn) | 35.3%[activator]
CCOC(=O)Cn1c(=O)c2c(nc(Br)n2Cc2ccc(Cl)cc2)n(C)c1=O | -2.0%
Brc1cccc(/C=N\n2cnnc2)c1 | 6.9%
